GALR2 agonist: GALR2 receptor agonists, primary screen, cell-based. Galanin receptor type 2 (Homo sapiens), O43603. GALR2-expressing cells, agonist activation read-out. activation, %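 (tested at 5 µM)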. 0.48% of 140,000 active. AID 803, 2007;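 active = above mean plus 3 SD of all compounds, about 5% in these data, not always enough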;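 also: 0% = vehicle buffer wells and 100% = reference agonist at full effect; tested in CHO reporter cells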
RGS16-Gao HTS: modulators of RGS16 binding to Galphao, primary screen, biochemical, human proteins, multiplexed bead flow cytometry. Regulator of G-protein signaling 16 (Homo sapiens) + Guanine nucleotide-binding protein …. bead-based flow cytometry RGS16-Galphao binding, fluorescence; actives lie on both sides. binding response (% of control), % at 10 µM. 0.38% of 220,000 active;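 active = below 25% or above 175%, edge rows of some plates excepted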;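 also: Galphao activated by GDP with aluminum fluoride before binding; 100% = wells without compound and 0% = beads without RGS; some results beyond the cut were filed as inactive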
PKD1 kinase inh: inhibitors of human PKD1 kinase, biochemical, fluorescence polarization. 0.056% of 200,000 active. PKD1 kinase fluorescence polarization assay. inhibition, %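 (about 10 µM by stock and volumes)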. Serine/threonine-protein kinase D1 (Homo sapiens), Q15139;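 active = inhibition of 50% or more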;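 also: controls were vehicle for no effect and a reference inhibitor for full effect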
Target sequence (Q15139 whole entry, looked up): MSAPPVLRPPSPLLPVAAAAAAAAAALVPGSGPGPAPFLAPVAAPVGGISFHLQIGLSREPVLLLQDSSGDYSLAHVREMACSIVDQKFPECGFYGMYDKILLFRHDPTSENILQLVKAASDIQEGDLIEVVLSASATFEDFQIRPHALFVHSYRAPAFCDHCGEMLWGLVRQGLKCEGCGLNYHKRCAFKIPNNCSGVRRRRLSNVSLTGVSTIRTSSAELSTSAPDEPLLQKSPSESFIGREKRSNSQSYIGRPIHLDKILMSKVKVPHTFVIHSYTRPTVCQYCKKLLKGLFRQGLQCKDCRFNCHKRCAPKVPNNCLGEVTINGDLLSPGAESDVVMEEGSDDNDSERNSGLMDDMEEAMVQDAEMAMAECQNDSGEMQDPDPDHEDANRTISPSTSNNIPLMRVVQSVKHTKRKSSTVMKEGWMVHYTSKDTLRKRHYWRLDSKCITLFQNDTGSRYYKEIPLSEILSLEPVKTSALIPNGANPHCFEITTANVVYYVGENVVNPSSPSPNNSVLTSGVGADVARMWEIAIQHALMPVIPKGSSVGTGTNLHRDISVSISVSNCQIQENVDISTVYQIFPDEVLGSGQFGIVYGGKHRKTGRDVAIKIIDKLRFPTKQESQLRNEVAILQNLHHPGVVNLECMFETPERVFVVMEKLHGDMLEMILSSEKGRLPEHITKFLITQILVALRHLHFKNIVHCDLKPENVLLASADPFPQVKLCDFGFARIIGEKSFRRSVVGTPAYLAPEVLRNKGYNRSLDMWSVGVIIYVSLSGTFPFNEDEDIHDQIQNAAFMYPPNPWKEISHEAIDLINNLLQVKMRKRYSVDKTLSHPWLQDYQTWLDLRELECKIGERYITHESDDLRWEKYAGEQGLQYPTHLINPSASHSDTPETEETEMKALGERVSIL
HSV augment: enhancers of HSV replication in host cells, fold increase, host cell viability; 0.005% of 220,000 active; HSV replication augmentation in cells; AID 1956, 2009; maximum fold increase;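 active = peak rise of 1.5-fold or more in the series; tested in PC3 cells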;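 also: first round at 10 µM; read as green reporter fluorescence; hits show the peak of a series up to 25 µM; 1 = signal of infected wells without compound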
Insulin prom inh: inhibitors of insulin promoter-driven GFP, primary screen, imaging, TRM-6 cells (human fetal islet line), eGFP reporter, cell count | reporter expression induced with tamoxifen | inhibition, % at 2 µM | 0.9% of 130,000 active;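 active = inhibition above the mean plus 3 SD, with well images judged a real hit on visual review, cut at about 60% in these data, passing the limit was not always enough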
Insulin prom inh cell count: recorded beside Insulin prom inh, whose call it bears; normalized cell count, %; measured here: cell count, toxicity; reference of the scale not given here;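 cells exposed to compound for 48 h; stained nuclei by imaging scaled within each plate; lower means fewer cells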
HSV augment primary fold: recorded beside HSV augment, whose call it bears; fold increase; compound at 10 µM; measured here: primary screen fold increase 10 uM; tested in PC3 cells;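 GFP signal in the first replicate; 1 = infected wells without compound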
* marks the source's active call; other numbers are inactive results; i = inactive; . = no result given.

Letter code: A = GALR2 agonist; B = RGS16-Gao HTS; C = PKD1 kinase inh; D = HSV augment; E = HSV augment primary fold; F = Insulin prom inh; G = Insulin prom inh cell count
O=C(CSc1ccc(-c2ccc(F)cc2)nn1)NCc1ccco1
  A: -2.8; B: 101; C: -4; D: i; E: 0.92; F: 5; G: 94
Cc1nn(-c2ccccc2)c(C)c1C=O
  A: .; B: 112; C: .; D: i; E: 1.1; F: .; G: .
CCOC(=O)C(Sc1ncc(C#N)c(N)n1)C(C)C (centres undefined)
  A: -2.2; B: 92; C: 0; D: i; E: 0.93; F: -16; G: 126
CCc1c(C)c(C#N)c2nc3ccccc3n2c1Cl
  A: -0.7; B: 101; C: 11; D: i; E: 0.7; F: -153; G: 7
O=C(N/N=C1\CCS(=O)(=O)c2ccc(F)cc21)c1ccc([N+](=O)[O-])cc1
  A: .; B: 99; C: .; D: i; E: 0.83; F: .; G: .
CCOc1ccccc1NC(=O)NCc1ccco1
  A: .; B: 85; C: .; D: i; E: 1.1; F: .; G: .
CCCCc1cc(=O)oc2c(C)c(OCc3nn[nH]n3)ccc12
  A: .; B: 99; C: .; D: i; E: 1; F: .; G: .
CCOC(=O)c1ccc(NC(=O)C(=O)NCCc2ccc(OC)cc2)cc1
  A: .; B: 101; C: -4; D: i; E: 1; F: .; G: .
CC(C)c1nc(Cl)c(C#N)c2c1CCC2
  A: .; B: 103; C: .; D: i; E: 0.98; F: .; G: .
CCC(=O)Oc1ccc(NC(=O)c2ccco2)cc1
  A: .; B: 102; C: -3; D: i; E: 0.91; F: 35; G: 151
Cc1ccc(C(C)C)c(OCCCN2CC(C)OC(C)C2)c1 (centres undefined)
  A: -3.0; B: 163; C: 4; D: i; E: 1; F: -65; G: 135
Cc1ccc(CN2CCN(Cc3ccc(Oc4ncccn4)cc3)CC2CCO)cc1 (centres undefined)
  A: .; B: 101; C: 2; D: i; E: 0.89; F: .; G: .
FC(F)(F)c1ccc(Oc2ccccc2Cl)nc1
  A: .; B: 102; C: -6; D: i; E: 1; F: .; G: .
Cc1ccc(S(=O)(=O)CCN2CCN(c3ccccn3)CC2)cc1
  A: .; B: 103; C: .; D: i; E: 1; F: .; G: .
Cc1ccc(Nc2nc(-c3ccc(O)c(O)c3)cs2)nc1
  A: .; B: 96; C: 2; D: i; E: 0.74; F: .; G: .
COc1ccc(CCNC(=O)CCC(=O)N2CCN(S(=O)(=O)c3ccccc3)CC2)cc1OC
  A: -0.5; B: 103; C: -13; D: i; E: 0.92; F: -82; G: 139
CNC(=O)c1ccc(-c2cc(C(F)(F)F)nn2C)s1
  A: .; B: 102; C: .; D: i; E: 0.95; F: .; G: .
CC(C)Nc1ccc(Nc2ccnc3cc4ccccc4cc23)cc1
  A: .; B: 93; C: .; D: i; E: 0.47; F: .; G: .
COC(=O)c1cn(NC(=O)/C=C/c2cccc(OC)c2OC)c(=O)c2ccccc12
  A: -1.3; B: 103; C: -16; D: i; E: 1; F: -45; G: 151
Cc1cccc(C)c1N(CC(=O)N/N=C/c1cc(Br)c(C)o1)S(C)(=O)=O
  A: 0.0; B: 102; C: 5; D: i; E: 1; F: 0; G: 107
Cc1ccc2nc(-c3cc(N)cc(N)c3)oc2c1
  A: -1.2; B: 88; C: -4; D: i; E: 0.98; F: 6; G: 147
O=C(Nc1ccc2ccccc2c1)/C(=C\c1ccc2c(c1)OCO2)NC(=O)c1ccco1
  A: 0.2; B: 100; C: 4; D: .; E: .; F: .; G: .
CC(CNC(=O)c1ccc(-c2ccccc2)cc1)CN(C)C (centres undefined)
  A: -1.3; B: 103; C: -9; D: i; E: 0.89; F: 13; G: 152
COc1ccc(CCNC(=O)COC(=O)Cc2ccc(OC)cc2)cc1
  A: -0.7; B: 105; C: 2; D: i; E: 0.84; F: .; G: .
O=C(Nc1cc(C(F)(F)F)ccc1N1CCOCC1)c1ccccc1F
  A: 1.2; B: 101; C: -6; D: .; E: .; F: -33; G: 76

Single records, from the list above:
Listed for Cc1ccc(CN2CCN(Cc3ccc(Oc4ncccn4)cc3)CC2CCO)cc1 (centres undefined) → GALR2 agonist: .; RGS16-Gao HTS: 101; PKD1 kinase inh: 2; HSV augment: i; HSV augment primary fold: 0.89; Insulin prom inh: .; Insulin prom inh cell count: .
Listed for CCOc1ccccc1NC(=O)NCc1ccco1 → GALR2 agonist: .; RGS16-Gao HTS: 85; PKD1 kinase inh: .; HSV augment: i; HSV augment primary fold: 1.1; Insulin prom inh: .; Insulin prom inh cell count: .

Carrying on.
Letter code: A = GALR2 agonist; B = RGS16-Gao HTS; C = PKD1 kinase inh; D = HSV augment; E = HSV augment primary fold; F = Insulin prom inh; G = Insulin prom inh cell count
Cc1ccc2nc(N3CCN(C=O)CC3)nc(-c3ccccc3)c2c1
  A: 3.7; B: 102; C: -1; D: i; E: 0.95; F: 58; G: 105
O=c1cc(N2CCc3ccccc32)[nH]c(=O)n1Cc1ccc(F)cc1
  A: -1.3; B: 46; C: -3; D: i; E: 0.97; F: -100; G: 109
CCOC(=O)C1=C(C)NC(C)=C(C(=O)OCC)C1c1ccco1
  A: .; B: 99; C: .; D: i; E: 0.97; F: .; G: .
O=C(Nc1nncs1)C1c2ccccc2Oc2ccccc21
  A: -0.5; B: 90; C: -2; D: i; E: 0.95; F: 22; G: 134
COC(=O)Cc1c(C)c2ccc(OCc3nn[nH]n3)cc2oc1=O
  A: -2.3; B: 103; C: 8; D: i; E: 0.93; F: -43; G: 90
O=[N+]([O-])c1cc(C2Nc3cccc4cccc(c34)N2)ccc1Cl
  A: 0.4; B: 93; C: 2; D: i; E: 0.91; F: .; G: .
CCC(=O)Nc1cc(C)c(NC(=O)c2ccco2)cn1
  A: -3.4; B: 111; C: -6; D: i; E: 1.1; F: 10; G: 139
Cc1c(C)c2ccc(OS(C)(=O)=O)c(C)c2oc1=O
  A: -1.5; B: 100; C: -6; D: i; E: 0.97; F: 0; G: 117
NS(=O)(=O)c1ccc2nc(NC(=O)c3ccncc3)sc2c1
  A: .; B: 93; C: -11; D: i; E: 0.95; F: .; G: .
O=C(Cc1ccccc1)NCCc1cn2ccsc2n1
  A: -3.9; B: 102; C: -8; D: i; E: 0.85; F: .; G: .
CCN1CCN(c2cc(C(C)(C)C)nc3c(-c4ccccc4)c(C)nn23)CC1
  A: 2.0; B: 109; C: -2; D: i; E: 0.91; F: 47; G: 57
Nc1ncnc2c1ncn2C1OC(CO)C(O)C1O (centres undefined)
  A: .; B: 104; C: 3; D: i; E: 1.1; F: .; G: .
O=C(Nc1cc2c(cc1Br)OCCO2)c1cccs1
  A: -3.5; B: 101; C: -3; D: i; E: 0.88; F: -3; G: 96
N#C/C(C(=O)NCc1ccco1)=C1/SC=C(c2ccccc2)N1c1ccccc1
  A: -1.2; B: 108; C: -7; D: i; E: 0.88; F: -64; G: 79
COC(=O)c1ccc(CN2C(=O)NC3(CCCc4ccccc43)C2=O)o1 (centres undefined)
  A: -1.2; B: 98; C: 12; D: i; E: 0.92; F: -7; G: 76
COc1ccc(S(=O)(=O)n2nc(OC(C)=O)cc2N(C(C)=O)C(C)=O)cc1
  A: .; B: 100; C: 6; D: i; E: 1; F: .; G: .
CC(Cc1ccccc1)NC(=O)C1CCCNC1=O (centres undefined)
  A: -2.0; B: 106; C: -5; D: i; E: 0.95; F: -7; G: 135
COc1ccc(S(=O)(=O)Nc2cc(C)cc(C)n2)c2ccccc12
  A: -2.4; B: 99; C: -5; D: i; E: 0.97; F: -38; G: 102
CCn1c(CNC(=O)c2ccco2)nnc1SCC(=O)Nc1cccc(F)c1
  A: .; B: 106; C: 4; D: i; E: 0.97; F: .; G: .
Cc1ccc(-n2c(=O)cc(N3CCN(C(=O)c4ccco4)CC3)[nH]c2=O)cc1
  A: -0.5; B: 92; C: 2; D: i; E: 0.91; F: 50; G: 51
O=C(O)COCC(=O)Nc1ccccc1-c1ccccc1
  A: .; B: 102; C: 0; D: i; E: 1.4; F: .; G: .
Cc1ccccc1NC(=O)C1C2CCC(O2)C1C(=O)O (centres undefined)
  A: -1.9; B: 99; C: 0; D: i; E: 0.85; F: -117; G: 100
Oc1ccc2ccccc2c1C=NCc1ccccc1
  A: .; B: 79; C: .; D: i; E: 1.1; F: .; G: .
CSc1nnc(C(C)(C)C)c(=O)n1/N=C/c1ccc(Cl)cc1
  A: .; B: 99; C: .; D: i; E: 0.9; F: .; G: .
CNC(=O)CCCCCNS(=O)(=O)c1ccc(C)cc1
  A: -1.9; B: 114; C: -7; D: i; E: 1; F: -123; G: 85

Later entries.
Letter code: A = GALR2 agonist; B = RGS16-Gao HTS; C = PKD1 kinase inh; D = HSV augment; E = HSV augment primary fold; F = Insulin prom inh; G = Insulin prom inh cell count
CN(c1ncnc(N)c1[N+](=O)[O-])C1CCS(=O)(=O)C1 (centres undefined)
  A: .; B: 109; C: 5; D: i; E: 0.92; F: .; G: .
N#CC1=C(N)OC2=C(C(=O)CCC2)C1C1CC=CCC1 (centres undefined)
  A: -3.5; B: 103; C: -12; D: i; E: 0.73; F: 29; G: 170
CCCn1nnc(NC(=O)COc2ccc(C3CCCCC3)cc2)n1
  A: 3.4; B: 101; C: 8; D: i; E: 0.96; F: 100*; G: 14*
Cc1c(NC(=O)C(C)OC(=O)CC2CC3CCC2C3)c(=O)n(-c2ccccc2)n1C (centres undefined)
  A: .; B: 95; C: 2; D: i; E: 0.95; F: .; G: .
c1coc(-c2ccnc3ncnn23)c1
  A: .; B: 104; C: -6; D: i; E: 0.89; F: 37; G: 155
CC(=O)c1sc2nsc(SCCN3CCCC3)c2c1N
  A: .; B: 100; C: .; D: i; E: 1; F: .; G: .
Nc1nc(Br)c2ccccc2c1-c1ccccc1
  A: .; B: 101; C: 4; D: i; E: 0.88; F: 29; G: 132
N=c1c2c3c(sc2nc2n1CCCCC2)CCCCC3
  A: -2.5; B: 106; C: -5; D: i; E: 0.94; F: 0; G: 98
c1ccc(CC2CCN(Cc3ccccn3)CC2)cc1
  A: .; B: 112; C: -1; D: i; E: 0.86; F: .; G: .
Cc1ccc2nc(N3CCN(c4ccccc4)CC3)c(C=O)c(=O)n2c1
  A: .; B: 100; C: 0; D: i; E: 1.2; F: .; G: .
Cc1cc(S(=O)(=O)Nc2c(C)nn(C)c2C)c(Cl)cc1Cl
  A: .; B: 101; C: .; D: i; E: 1.2; F: .; G: .
O=C(NC1CCCC1)c1ccc(Br)o1
  A: -0.5; B: 101; C: 0; D: i; E: 1.1; F: -7; G: 184
COn1c(-c2ccc(Cl)cc2Cl)nc2ncccc21
  A: .; B: 86; C: -9; D: i; E: 1; F: -26; G: 51
Cc1nn(-c2nnc(NCc3ccccc3)nn2)c(C)c1Br
  A: -0.6; B: 109; C: 3; D: i; E: 0.83; F: -44; G: 100
O=C(c1cc(C(=O)N2CCOCC2)c2nc3ccccc3n2c1)c1cc(Cl)cc(Cl)c1O
  A: .; B: 100; C: .; D: i; E: 0.94; F: .; G: .
CCOC(=O)N1CCC(N2CCCC(C(=O)c3cccc(OC)c3)C2)CC1 (centres undefined)
  A: .; B: 96; C: .; D: i; E: 1.1; F: .; G: .
Cc1cccc(N/C(N)=N/c2nc(C)c(Cc3ccccc3)c(=O)[nH]2)c1
  A: .; B: 106; C: 1; D: i; E: 0.72; F: -14; G: 57
NC(=O)C1CCN(C(=O)CN2CCCc3ccccc32)CC1
  A: -2.0; B: 101; C: -1; D: i; E: 1.1; F: -41; G: 89
COc1ccc(OC)c(C2/C(=C(/O)c3ccccc3)C(=O)C(=O)N2Cc2ccco2)c1 (centres undefined)
  A: 0.3; B: 126; C: -10; D: i; E: 0.98; F: .; G: .
Cc1ccc(C)n1-n1c(C)nc2scc(-c3ccccc3)c2c1=O
  A: -2.1; B: 106; C: -7; D: i; E: 0.9; F: -471; G: 56
O=c1cc(CSc2nnc(COc3ccccc3)o2)c2ccccc2[nH]1
  A: -1.7; B: 117; C: -2; D: i; E: 0.96; F: .; G: .
Cc1sc(N(C(=O)CCc2ccccc2)c2ccc(C(=O)O)cc2)nc1-c1ccccc1
  A: .; B: 103; C: -1; D: i; E: 1.1; F: .; G: .
Cc1cc(C)cc(NC(=O)COC(=O)c2cc(=O)[nH]c(=O)[nH]2)c1
  A: .; B: 101; C: -9; D: i; E: 0.97; F: .; G: .
CC(=O)N(C(C)=O)c1nc(-c2ccccc2)cn1/N=C/c1ccccc1
  A: .; B: 97; C: .; D: i; E: 0.98; F: .; G: .
COc1ccc(NC(=O)Cn2nnc(C(=O)NCc3ccc4c(c3)OCO4)c2N)cc1
  A: .; B: 101; C: -6; D: i; E: 1; F: .; G: .
COc1ccc(C(C(=O)NC(C)(C)C)N(C(=O)CNC(=O)c2cccs2)c2ccc(C(C)C)cc2)cc1OC (centres undefined)
  A: 1.2; B: 73; C: -12; D: i; E: 1.2; F: -20; G: 106

Compound activity from PubChem BioAssay.
